VACV mCherry inh: vaccinia inhibition (mCherry reporter). Vaccinia virus mCherry reporter infection, fluorescence; about a quarter of the inactives have no number. Potency, µM (highest dose often 36.5 µM), without a hit: at the top dose activity change, negative = inhibition, most hits filed as inhibitors. hit rate 0.63% among 310,000. AID 720579; active = well fitted inhibition curve with a large enough effect; inconclusive = small, poorly fitted or top-dose-only effect; inactive = no such curve, though single readings can be large or run the other way; tested in A549 cells; note: nearly all actives have a fitted effect of over 35% in size; inactives centre near -10
Vaccinia Venus: vaccinia inhibition (Venus reporter). Vaccinia virus Venus reporter expression, fluorescence. hit rate 0.46% among 330,000. Potency, µM (series often up to 36.5 µM), without a hit: at the highest dose activity change, negative = inhibition, actives largely listed as inhibitors; active means well fitted inhibition curve with a large enough effect; inconclusive means small, poorly fitted or top-dose-only effect; inactive means no such curve, though single readings can be large or run the other way; tested in A549 cells; note: nearly all actives have a fitted effect of over 30% in size; inactives centre near -10
* = called active by the depositor; i = inactive; ? = inconclusive; nt = no result given; & = joins results of further samples; [ ] = another dose, or the depositor's remark. % is set by controls: 0 for no effect and ±100 for the full control effect; potency is the fitted concentration of half-maximal effect.

The opening 5 compounds, to show the layout:
SMILES	VACV mCherry inh	Vaccinia Venus
COC(=O)c1ccc(CN(C(C)=O)c2ccccc2)o1	-10%	-5%
CSCCC(=O)Nc1cc(S(=O)(=O)N2CCOCC2)ccc1N1CCN(C)CC1	-21%	-2%
O=C(NCC1CCCO1)c1cc(S(=O)(=O)N2CCOCC2)c(Cl)cc1Cl (centres undefined)	0%	-4%
Cc1cccc(N2CCN(c3cc(C)nc4c(-c5ccc(Cl)cc5)c(C)nn34)CC2C)c1 (centres undefined)	4%	-2%
O=C(CCNS(=O)(=O)c1ccc(Br)cc1)N1CCN(c2ccccc2O)CC1	?	-6%

The list itself, from the first entry:
SMILES	VACV mCherry inh	Vaccinia Venus
COC(=O)c1ccc(CN(C(C)=O)c2ccccc2)o1	-10%	-5%
CSCCC(=O)Nc1cc(S(=O)(=O)N2CCOCC2)ccc1N1CCN(C)CC1	-21%	-2%
O=C(NCC1CCCO1)c1cc(S(=O)(=O)N2CCOCC2)c(Cl)cc1Cl (centres undefined)	0%	-4%
Cc1cccc(N2CCN(c3cc(C)nc4c(-c5ccc(Cl)cc5)c(C)nn34)CC2C)c1 (centres undefined)	4%	-2%
O=C(CCNS(=O)(=O)c1ccc(Br)cc1)N1CCN(c2ccccc2O)CC1	?	-6%
COc1ccc(N2CCN(S(=O)(=O)c3ccc(CC(C)C)cc3)CC2)cc1	11%	5%
C/C(=N\NC(=O)Nc1ccccc1)c1ccccc1	-18%	-12%
CSc1ccc(CN(C)CC(=O)NC(=O)NCCC2=CCCCC2)cc1	-24%	-17%
Cc1ccc(CN2C(=O)C(CC(C)C)Nc3ncnc(N4CCOCC4)c32)cc1 (centres undefined)	i	-12%&9%
COc1ccc(NC(=O)CC2C(=O)N(Cc3ccco3)C(=S)N2C(C)C)cc1 (centres undefined)	-13%	-13%
CCC1Nc2ncnc(N3CCc4ccccc4C3)c2N(Cc2ccc(Cl)cc2)C1=O (centres undefined)	-23%	?
Cc1ccc(-n2ncc(C(=O)Nc3cc(Cl)ccc3Cl)c2C2CCNCC2)cc1	-5%	-21%
Cc1ccc(NC(=O)N2CCN(c3cc(-c4noc(C)n4)ccc3C)CC2)c(C)c1	1%	-5%
Cc1cc(C)nc(SCCS(=O)(=O)Cc2ccc(Cl)cc2)n1	nt	?
CN1CCN(S(=O)(=O)c2cccs2)CC1	i	-10%
c1ccc2c(c1)[nH]c1c3ccccc3sc21	-14%	-21%
CCCC(=O)N1CCCC1(C)C(=O)Nc1cc(C)ccc1C (centres undefined)	30%[activator]	4%
CCC1CCCCN1C(=O)Cn1c(=O)oc2cc(S(=O)(=O)N3CCCCC3)ccc21 (centres undefined)	-3%	9%
CN1CCC(C)(O)C2CCCCC21 (centres undefined)	-5%	-10%
Cc1ccc(CN2C(=O)CCC2C(=O)NC2CCCC2)cc1 (centres undefined)	nt	-12%
CCN(CC)S(=O)(=O)c1ccc2c(c1)N(CC(=O)N(C)Cc1ccccc1)C(=O)CO2	-5%	2%
Cc1ccc(CNC(=O)CN2C(=O)CCn3nc(-c4ccccc4)cc32)cc1	-14%	-18%
Cc1ccc(CNC(=O)C2CCCN(S(=O)(=O)c3c(C)noc3C)C2)cc1 (centres undefined)	0%	-3%
O=C1CC(N2CCN(c3ccc(Cl)cc3)CC2)C(=O)N1c1ccccc1 (centres undefined)	i	-9%
Cc1ccccc1C(C(=O)NC1CCCC1)N(C(=O)Cc1cccs1)c1ccc2c(c1)OCCO2 (centres undefined)	-6%	-14%
CCCCS(=O)(=O)C1CCS(=O)(=O)C1 (centres undefined)	nt	-5%
Cc1ccc(N(C(=O)c2csnn2)C(C(=O)NC2CCCCC2)c2cccnc2)cc1 (centres undefined)	-1%	-1%
COCCN1CCn2c(nc3cc(NC(=O)c4ccc(OC)cc4)ccc32)C1	i	-5%
Cc1cccc(CN2CCC(CNC(=O)Nc3ccccc3F)CC2)c1	i	-18%
CCN1C(=O)C(CC(=O)Nc2c(C)cccc2C)SC1=Nc1ccc(S(N)(=O)=O)cc1 (centres undefined)	nt	-17%
O=C(COC(=O)c1ccccc1O)NC(=O)NCc1ccccc1	-7%	-6%
CC(C)C(NS(=O)(=O)c1cccs1)C(=O)NCc1ccc2c(c1)OCO2 (centres undefined)	i	-9%
CC(C)CN1CCC(=O)N([C@H](CO)Cc2ccccc2)CC1	i	-20%
CNC[C@H]1OCc2cnnn2CCCC(=O)N([C@H](C)CO)C[C@@H]1C	15%	-1%
COc1cc(/C=N/NC(=O)c2cccc(N3CCCC3=O)c2)ccc1O	i	-11%
COc1ccccc1C(=O)COC(=O)Cc1n[nH]c(=O)c2ccccc12	i	-15%
COc1ccc(S(=O)(=O)N2CCN(c3ccccc3)CC2)cc1OC	-16%	-4%
COc1ccc(S(=O)(=O)Cc2ccc(C(=O)N3CCN(C4CCCCC4)CC3)o2)cc1	10%	-1%
CCSC1=NC(C)(C)C=C(C)N1	nt	-4%
COc1ccc(Cl)cc1S(=O)(=O)N1CCCC(C(=O)NCC(N)=O)C1 (centres undefined)	-18%	-11%
CCN1CCN(C(c2cccs2)C(C)NC(=S)NC2CCCCC2)CC1 (centres undefined)	-8%	-16%
COC(=O)CC1C(C)(C)C2(O)OC34CC2C(=O)[C@@]1(C)C3CC[C@]1(C)C4=CC(=O)OC1c1ccoc1 (some centres undefined)	0%	-8%
CCOc1ccc(OCC)c(S(=O)(=O)n2ccnc2C)c1	-12%	-15%
CCOC(=O)c1c(Nc2ccc(OCC)cc2)nnc(-c2ccccc2)c1-c1ccccc1	-15%	-15%
Brc1nc2ncnc(NCc3ccco3)c2[nH]1	-14%	-23%
O=[N+]([O-])c1ccc2c(c1)C(O)n1nc(-c3ccccc3)nc1S2 (centres undefined)	11%	-3%
Cc1ccc(CNC(=O)c2nn(C)c3c2CSc2ccc(C)cc2-3)cc1	-13%	-8%
CC(=O)Nc1ccc(C(=O)NCC(=O)OCc2c(F)cccc2Cl)cc1	-2%	-4%
O=C(/C(=C/O)N=Nc1ccccc1)c1cccs1	-8%	0%
COC(=O)c1c(NC(=O)CSc2n[nH]c(N)n2)sc(C)c1C	?	-29%
Cc1ccc(CC2(O)CC(C)N(C)CC2C)c(C)c1 (centres undefined)	i	-12%
O=c1c2ccccc2nnn1CSc1ccccc1F	-3%	-16%
O=C1NC(=O)C(CCc2ccncc2)(CCc2ccncc2)C(=O)N1C1CCCCC1	i	-9%
Nc1nccc(/C=C/c2c(Cl)cccc2Cl)n1	-16%	-20%
CCOc1ccc(NS(=O)(=O)c2ccc(C(=O)NCC(c3cccs3)N3CCOCC3)cc2)cc1 (centres undefined)	i	-5%
COc1cc(C(O)P(=O)(OC(C)C)c2ccc(N(C)C)cc2)cc(OC)c1OC (centres undefined)	-3%	-9%
CCN(CC)S(=O)(=O)c1ccc(C(=O)OCC(=O)NCc2ccco2)cc1	-13%	-7%
Cc1cc(C)c(NC(=O)CN2C(=O)C3(SCC(=O)N3c3ccc(F)cc3)c3ccccc32)c(C)c1 (centres undefined)	-12%	-10%
CCc1ccc2c(CN3CCC(C(=O)OC)CC3)cc(=O)oc2c1	i	-4%
CN1C(=O)/C(=C/c2ccco2)SC1=Nc1ccc(N2CCOCC2)cc1	-18%	-6%
(further entries)
SMILES	VACV mCherry inh	Vaccinia Venus
COCCNS(=O)(=O)c1ccc(-c2ccc(Cl)cc2)cc1	-2%	-10%
Cc1ccc(CN(C(=O)c2ccccc2C)C2CCS(=O)(=O)C2)o1 (centres undefined)	-8%	-6%
CC(C)(C)c1ccc(S(=O)(=O)N2CCCC2C(=O)N2CCOCC2)cc1 (centres undefined)	i	-12%
CN(Cc1ccccc1)C(=O)c1ccc(NC(=O)C2CCCN(C(=O)OC(C)(C)C)C2)cc1 (centres undefined)	-14%	-15%
CC1=Nc2cc(C(=O)NCCc3ccc(Cl)cc3)ccc2Sc2c(C)ccc(C)c21	?	-24%
Cc1ccc(C)c(N=Cc2ccc(-c3ccc([N+](=O)[O-])cc3)o2)c1	?	6%
O=C(CSc1cn(CC(=O)N2CCCCC2)c2ccccc12)NCc1ccc(F)cc1	-15%	-12%
CCOC(=O)c1c(C)oc2ccc(N(C(=O)Oc3ccccc3)S(=O)(=O)c3ccc(CC)cc3)cc12	-6%	-23%
CC(=O)C(C)n1c(CN(C)Cc2ccccc2)nc2c1c(=O)n(C)c(=O)n2C (centres undefined)	i	-2%
CN(C)S(=O)(=O)c1ccc(NC(=O)Cn2c(-c3ccccc3)noc2=O)cc1	-8%	9%
c1csc(C2=NNC(=NC3CCCCC3)SC2)c1	-16%	-9%
O=c1c2c([nH]n1-c1ccccc1)CCCC2	-2%	-15%
CCCCCCSc1cc(-c2nc3ccc(C)cn3c2NCCCC)ccc1OC	-25%	?
COC(=O)[C@]1(CC(C)C)N[C@H](c2ccc(-c3ccc(OC)cc3)cc2)[C@@H]2C(=O)N(C)C(=O)[C@@H]21	-14%	-19%
CCOc1ccc(CN(CC)C(=O)Cc2c[nH]c3ccccc23)cc1OC	-15%	-5%
CC(=O)Nc1ccc(NC(=O)CN2C(=O)CN(C)C(=O)c3ccccc32)cc1	9%	12%
C=C(C)C(COc1c2occc2cc2ccc(=O)oc12)OC(C)(C)C(O)COc1c2occc2cc2ccc(=O)oc12 (centres undefined)	-3%	0%
O=c1c(-c2ccc(O)cc2)coc2c([C@@H]3O[C@H](CO)[C@@H](O)[C@H](O)[C@H]3O)c(O)ccc12	i	-17%
O=C(N/N=C/c1coc2ccc(Cl)cc2c1=O)c1ccncc1	i	-6%
COC(=O)c1[nH]c2cccc(OC)c2c1NC(=O)CN1CCOCC1	nt	-7%

Some of the entries so far, as comma-separated lines:
molecule,VACV mCherry inh,Vaccinia Venus
O=c1c2c([nH]n1-c1ccccc1)CCCC2,-2%,-15%
CC(=O)Nc1ccc(NC(=O)CN2C(=O)CN(C)C(=O)c3ccccc32)cc1,9%,12%
COCCNS(=O)(=O)c1ccc(-c2ccc(Cl)cc2)cc1,-2%,-10%
COC(=O)[C@]1(CC(C)C)N[C@H](c2ccc(-c3ccc(OC)cc3)cc2)[C@@H]2C(=O)N(C)C(=O)[C@@H]21,-14%,-19%
O=c1c(-c2ccc(O)cc2)coc2c([C@@H]3O[C@H](CO)[C@@H](O)[C@H](O)[C@H]3O)c(O)ccc12,i,-17%
c1csc(C2=NNC(=NC3CCCCC3)SC2)c1,-16%,-9%
CN(Cc1ccccc1)C(=O)c1ccc(NC(=O)C2CCCN(C(=O)OC(C)(C)C)C2)cc1 (centres undefined),-14%,-15%

Complete entries, quoted from the list. Order of values: VACV mCherry inh	Vaccinia Venus
C=C(C)C(COc1c2occc2cc2ccc(=O)oc12)OC(C)(C)C(O)COc1c2occc2cc2ccc(=O)oc12 (centres undefined) is entered as -3%	0%
O=C1CC(N2CCN(c3ccc(Cl)cc3)CC2)C(=O)N1c1ccccc1 (centres undefined) is entered as i	-9%

More entries.
SMILES	VACV mCherry inh	Vaccinia Venus
COc1ccc(Cn2cc(CN3CC(N4CCN(Cc5ccccc5F)CC4)CS3(=O)=O)nn2)cc1 (centres undefined)	7%	3%
COc1cc(/C=N/NC(=O)C(=O)NCC2CCCO2)ccc1O (centres undefined)	-12%	-16%
CN(c1ccccc1)c1ccc(/C=N/N2CCOCC2)cc1	-17%	-17%
CCOc1ccccc1N(C)S(=O)(=O)c1ccc2c(c1)CCN2C(=O)CCC(=O)O	-9%	-13%
CC(c1ccco1)N(C(=O)c1ccc(Cl)c([N+](=O)[O-])c1)c1ccccn1 (centres undefined)	-15%	-2%
CCOc1ccc(C(=O)N2CCN(S(=O)(=O)c3ccc4c(c3)OCCO4)CC2)cc1OCC	-23%	-20%
Cc1cccc(OCC(=O)Nc2ccc3c(c2)OCCO3)c1	-23%	-7%
CCCOc1ccc(C(=O)NCCCn2ccnc2)cc1	-8%	-3%
CC1(C(=O)NS(=O)(=O)c2cccc(F)c2)CCN1C(=O)CCC1CCCC1 (centres undefined)	2%	1%
CC(=O)Nc1ccc(N=Cc2ccc(OCc3ccccc3)cc2)cc1	-20%	-4%
CC1CCN(C(=O)COC(=O)c2ccc3c(c2)OCO3)CC1	-13%	-2%
O=C(CN(Cc1ccc2c(c1)OCO2)C(=O)CNS(=O)(=O)c1ccccc1)NCc1ccco1	nt	-9%
CC(C(=O)c1ccccc1)[n+]1cccc(Br)c1 (centres undefined)	-12%	-6%&-8%
CCOc1ccc(NC(=O)Cn2nnc(-c3ccc(C(N)=O)cc3)n2)cc1S(=O)(=O)N1CCCC1	?	-20%
Cc1cc(O)c(N=Nc2ccc(C(=O)O)cc2)cc1C	-13%	-5%
CC(C)Oc1ccc(CNC(=O)c2ccc3nc(SCc4ccc(F)cc4)n(C)c3c2)cc1	-11%	-12%
COc1ccc(-c2c(C)c3ccc(O)c(CN4CCCCC4C)c3oc2=O)cc1OC (centres undefined)	-16%	-12%
Cc1oc(-c2cccs2)cc1C(=O)N1CCC(C)(C(=O)NS(=O)(=O)C2CC2)C1 (centres undefined)	37%[activator]	-4%
COc1ccc(NCCC(O)c2ccc(Cl)cc2)cc1 (centres undefined)	-13%	-7%
c1ccc(CCc2ccccc2-c2nc(-c3ccccn3)no2)cc1	0%	-1%
O=C(COC(=O)c1ccc(Cl)nc1)Nc1ncc(Cl)cc1Cl	-5%	-3%
CCOC(=O)/C=C/C(=O)Nc1ccc(S(=O)(=O)Nc2cc(OC)nc(OC)n2)cc1	i	-4%
Cc1ccc(NC(=O)c2cc(S(=O)(=O)N3CCC(C)CC3)cn2C)cc1Cl	-17%	-12%
Cc1ccccc1OCCC(=O)OCC(=O)Nc1ccc(N2CCOCC2)cc1	-13%	-2%
Cc1oc2ccc(O)c(CN3CCC(C)CC3)c2c1C(=O)Nc1ccccc1	-14%	-6%
Cc1nn2c(NCc3cccnc3)c3c(nc2c1-c1ccccc1)CCC3	-1%	-10%
CC(C)(C)C(=O)Nc1ccc(Cc2ccncc2)cc1	-1%	-9%
CCCc1nn2c(=O)cc(COC(=O)c3ccccc3NC(=O)c3cccs3)nc2s1	-6%	4%
